Compound activity deposited in PubChem BioAssay by ICCB-Longwood Screening Facility, Harvard Medical School.
HCMV NEC inh = inhibitors of HCMV UL50-UL53 nuclear egress complex interaction. HTRF UL50-UL53 interaction, normalized percent inhibition. inhibition, % (no concentration beside the values). 0.15% of 190,000 active;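 active means both replicates at 50% or more, plus weaker picks with an unusually low signal ratio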;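 further: stock transfer was 100 nL into about 20 µL; 0% = negative control wells and 100% = wells with untagged competitor protein; inactives centre near -12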
GIV Gai3 FP = inhibitors of GIV GBA-motif binding to rat Galpha-i3; P08753; Galpha-i3/FITC-GIV peptide fluorescence polarization, 90 min; stronger effect = lower value; scaled: aluminum fluoride 0%, vehicle 100%; percent of control (FP), % (no concentration beside the values); 0.42% of 210,000 active;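 active means replicate mean at 85% of control or lower, very high polarization wells dropped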;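 further: wells of about 15 µL received 100 nL stock; the first replicate is given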
Target sequence (P08753 whole entry, looked up): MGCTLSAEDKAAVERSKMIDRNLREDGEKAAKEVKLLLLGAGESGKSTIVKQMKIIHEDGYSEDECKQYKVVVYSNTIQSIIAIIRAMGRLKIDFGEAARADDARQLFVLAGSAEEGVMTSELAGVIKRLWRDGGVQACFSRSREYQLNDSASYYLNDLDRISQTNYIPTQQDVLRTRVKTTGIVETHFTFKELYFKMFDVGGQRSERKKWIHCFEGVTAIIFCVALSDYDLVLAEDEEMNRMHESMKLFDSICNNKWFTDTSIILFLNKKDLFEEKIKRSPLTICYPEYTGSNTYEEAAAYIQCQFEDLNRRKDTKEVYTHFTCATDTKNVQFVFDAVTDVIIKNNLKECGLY
Sa growth 42C = inhibitors of Staphylococcus aureus growth at 42 °C; 0.53% of 170,000 active; S. aureus RN4220 growth, OD600, 20 h; stronger effect = lower value; relative growth, % (no concentration beside the values);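 active means growth at 42 °C up to 50% and 20 or more points under that at 30 °C, or under 10% at both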;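 further: 300 nL library stock went into each well; scaled to the means of positive and negative controls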
Sa growth 42C second temp = recorded beside Sa growth 42C, whose call it bears; relative growth, %; measured here: growth at 30 °C;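 optical density after 20 h as mean of two plates; 100% = untreated growth and lower means inhibition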
* marks the source's active call; other numbers are inactive results; & = joins results of further samples. Compounds as they come; about 0.79% have a hit in one of these screens.

Screening CC(C)SC1=NN2CCCC(=O)N=C2S1 returned HCMV NEC inh -20&2, GIV Gai3 FP 105, Sa growth 42C 124 and Sa growth 42C second temp 98.
CCOC(=O)c1c(NC(=O)Nc2ccc(F)cc2)sc(C(=O)N(C)C)c1C was read as HCMV NEC inh -4, GIV Gai3 FP 104, Sa growth 42C 96 and Sa growth 42C second temp 83.
CC(C)Oc1ccc(C(=O)NCCc2csc(-c3cccc(F)c3)n2)cc1 was read as GIV Gai3 FP 104, Sa growth 42C 81 and Sa growth 42C second temp 84.
Screening CCCCN(CC)C(=O)Nc1ccc2c(c1)N(CC)C(=O)c1ccccc1S2 returned GIV Gai3 FP 103, Sa growth 42C 87 and Sa growth 42C second temp 83.
Screening CCOC(=O)CC1=Nc2ccccc2NC(=O)C1 returned HCMV NEC inh -25, GIV Gai3 FP 100, Sa growth 42C 108 and Sa growth 42C second temp 90.
`CCOC(=O)c1ccc(NC(=O)C2CC(=O)N3CCCN=C3S2)cc1` (stereo unspecified) gave HCMV NEC inh 1, GIV Gai3 FP 108, Sa growth 42C 91 and Sa growth 42C second temp 93.
`CC(=O)Oc1ccc2cc(-c3nc4ccccc4n3C)c(=O)oc2c1` gave GIV Gai3 FP 112, Sa growth 42C 91 and Sa growth 42C second temp 84.
For CCc1cnc2c(c1SCC(=O)N1CCCCC1)c(=O)n(C)c(=O)n2C the results were GIV Gai3 FP 103, Sa growth 42C 150 and Sa growth 42C second temp 88.
Screening CCOC(=O)c1c(NC(=O)c2cc(OC)c(OC)c(OC)c2)sc(C(=O)Nc2cccc(Cl)c2C)c1C returned HCMV NEC inh 6 and GIV Gai3 FP 101.
Cc1nnc2ccc(NCCC3=CCCCC3)nn12 was read as GIV Gai3 FP 105, Sa growth 42C 105 and Sa growth 42C second temp 84.
Screening O=S(=O)(c1cccc(-c2nnc(-c3ccccc3)o2)c1)N1CCCC1 returned GIV Gai3 FP 105, Sa growth 42C 108 and Sa growth 42C second temp 95.
Screening O=C(O)/C(=C\c1ccncc1)c1ccc(S(=O)(=O)N2CCCCC2)s1 returned HCMV NEC inh 16, Sa growth 42C 88 and Sa growth 42C second temp 88.
Screening COc1ccc(OC)c2c1cc1n2CC(C)(C(=O)NC2CCC(C)CC2)N(CCC(C)C)C1=O (stereo unspecified) returned HCMV NEC inh -1 and GIV Gai3 FP 102.
`CCOc1ccc(-c2c(C#N)c(N)nc3sc(C(=O)c4ccc(OC)cc4)c(N)c23)cc1` gave HCMV NEC inh -5 and GIV Gai3 FP 102.
Cc1ccc(-n2ncc3c(=O)n(Cc4c(F)cccc4Cl)cnc32)cc1C was read as HCMV NEC inh 7, GIV Gai3 FP 101, Sa growth 42C 108 and Sa growth 42C second temp 86.
For N#Cc1ccccc1N/C=C(\C(N)=S)C(F)(F)F the results were HCMV NEC inh 2, Sa growth 42C 99 and Sa growth 42C second temp 78.
`COc1ccc(NC(=O)CSCc2nc(-c3ccc(C(C)C)cc3)no2)cc1` gave HCMV NEC inh 18, Sa growth 42C 105 and Sa growth 42C second temp 92.
`CN(C)CCNC(=O)c1cc2occc2c(Nc2ccc(Cl)cc2)n1` gave HCMV NEC inh -10 and GIV Gai3 FP 104.
For Cc1cccc(C)c1NC(=O)CN1C(=O)CCSc2ccc(S(=O)(=O)N3CCCC3)cc21 the results were GIV Gai3 FP 101, Sa growth 42C 96 and Sa growth 42C second temp 75.
For COc1ccc(Cl)cc1S(=O)(=O)N1CCC(C(=O)NCc2ccco2)CC1 the results were HCMV NEC inh -37, GIV Gai3 FP 101, Sa growth 42C 122 and Sa growth 42C second temp 97.
CCC(Sc1ccccn1)C(=O)Nc1ccc(Cl)cn1 (stereo unspecified) was read as HCMV NEC inh 2, GIV Gai3 FP 102, Sa growth 42C 83 and Sa growth 42C second temp 94.
Screening COc1ccc(/C=C2/SC(=O)N(CCc3nnc(N)s3)C2=O)cc1 returned HCMV NEC inh -60, GIV Gai3 FP 96, Sa growth 42C 83 and Sa growth 42C second temp 70.
CC(C)=C(C#N)n1cnc2ccccc21 was read as HCMV NEC inh 8, Sa growth 42C 89 and Sa growth 42C second temp 93.
COc1ccc2c(c1)c1c(c(=O)n(Cc3ccccc3)c(=O)n1Cc1ccc(C)cc1)n2C was read as GIV Gai3 FP 103, Sa growth 42C 113 and Sa growth 42C second temp 86.
Screening COc1ccccc1NC(=O)CN(C)S(=O)(=O)c1cccc2cccnc12 returned HCMV NEC inh 4, GIV Gai3 FP 108, Sa growth 42C 94 and Sa growth 42C second temp 88.
Screening COC(=O)c1c(C)c(Cl)c(C)c(Cl)c1OC returned HCMV NEC inh -15, Sa growth 42C 108 and Sa growth 42C second temp 98.
Cc1noc(C)c1CSc1n[nH]c(=O)n1Cc1ccco1 was read as HCMV NEC inh 11, GIV Gai3 FP 99, Sa growth 42C 114 and Sa growth 42C second temp 86.
`CC1=CC(=C(C#N)C#N)C=C(C)N1c1ccc(C)c(C)c1` gave HCMV NEC inh -15, Sa growth 42C 109 and Sa growth 42C second temp 95.
Screening CCC(Sc1nc2ncccc2o1)C(=O)NCCc1ccccc1 (stereo unspecified) returned HCMV NEC inh -20, GIV Gai3 FP 103, Sa growth 42C 101 and Sa growth 42C second temp 61.
For O=C1NC(c2cccc(O)c2O)Nc2sc3c(c21)CCC3 (stereo unspecified) the results were HCMV NEC inh 14, Sa growth 42C 119 and Sa growth 42C second temp 101.
For Cc1ccc(C(=O)N(C(C)C)C(C)C)c(Cl)c1 the results were HCMV NEC inh 0, GIV Gai3 FP 102, Sa growth 42C 97 and Sa growth 42C second temp 105.
For COc1cccn(Cc2n[nH]c(=S)n2C)c1=O the results were HCMV NEC inh -17, GIV Gai3 FP 105, Sa growth 42C 80 and Sa growth 42C second temp 86.
Screening O=C(N/N=C/c1c(O)ccc2ccccc12)c1ccccn1 returned HCMV NEC inh -8, GIV Gai3 FP 140, Sa growth 42C 87 and Sa growth 42C second temp 82.
`Cc1ccc2oc(=O)c3cnn(CC(=O)NCc4ccccc4Cl)c3c2c1` gave HCMV NEC inh -37, GIV Gai3 FP 106, Sa growth 42C 112 and Sa growth 42C second temp 90.
For O=C(CCCn1c(SCc2ccccc2Cl)nc2ccccc2c1=O)NCc1ccco1 the results were HCMV NEC inh 6, GIV Gai3 FP 98, Sa growth 42C 96 and Sa growth 42C second temp 91.
`Cc1ccc(C(CC(=O)Nc2ccccn2)N2Cc3ccccc3C2=O)cc1` (stereo unspecified) gave HCMV NEC inh 5, GIV Gai3 FP 107, Sa growth 42C 95 and Sa growth 42C second temp 84.
Screening CC(=O)N1CCN(C(=O)C2CC(=O)N(Cc3ccc(C)cc3)C2)CC1 (stereo unspecified) returned HCMV NEC inh -31, Sa growth 42C 78 and Sa growth 42C second temp 85.
Screening N#C/C(=C\c1ccccc1)C(=O)N1CCN(Cc2ccccc2)CC1 returned HCMV NEC inh 10, Sa growth 42C 95 and Sa growth 42C second temp 90.
`COc1ccc(-c2nc3c(c(=O)c4ccccc4n3C)c(=O)n2Cc2ccco2)cc1` gave HCMV NEC inh -26, GIV Gai3 FP 107, Sa growth 42C 86 and Sa growth 42C second temp 85.
For O=C(O)c1c(-c2ccccc2)[nH]n(-c2ccccc2)c1=O the results were HCMV NEC inh -29, Sa growth 42C 103 and Sa growth 42C second temp 84.

Next part (4 carried over from the part before).
Screening CC(=O)N1CCN(C(=O)C2CC(=O)N(Cc3ccc(C)cc3)C2)CC1 (stereo unspecified) returned HCMV NEC inh -31, Sa growth 42C 78 and Sa growth 42C second temp 85.
Screening N#C/C(=C\c1ccccc1)C(=O)N1CCN(Cc2ccccc2)CC1 returned HCMV NEC inh 10, Sa growth 42C 95 and Sa growth 42C second temp 90.
`COc1ccc(-c2nc3c(c(=O)c4ccccc4n3C)c(=O)n2Cc2ccco2)cc1` gave HCMV NEC inh -26, GIV Gai3 FP 107, Sa growth 42C 86 and Sa growth 42C second temp 85.
For O=C(O)c1c(-c2ccccc2)[nH]n(-c2ccccc2)c1=O the results were HCMV NEC inh -29, Sa growth 42C 103 and Sa growth 42C second temp 84.
`CC(c1nnnn1CCc1ccccc1)N1CCN(c2cccc(C(F)(F)F)c2)CC1` (stereo unspecified) gave HCMV NEC inh -6, GIV Gai3 FP 104, Sa growth 42C 97 and Sa growth 42C second temp 81.
Screening O=C(/C=C/c1ccc(Cl)cc1)Nc1cccc(Cl)c1 returned HCMV NEC inh -5, GIV Gai3 FP 105, Sa growth 42C 36 and Sa growth 42C second temp 58.
`CN(C(=O)c1ccco1)c1ccccc1C(=O)O` gave HCMV NEC inh 2, GIV Gai3 FP 104, Sa growth 42C 64 and Sa growth 42C second temp 81.
Screening Cc1onc(-c2ccccc2Cl)c1C(=O)Nc1cc2c(cc1N1CCOCC1)n(C)c(=O)c(=O)n2C returned HCMV NEC inh -29 and GIV Gai3 FP 107.
`O=C1CC(c2ccccc2)c2c(c3ccccc3[nH]c2=O)O1` (stereo unspecified) gave GIV Gai3 FP 100, Sa growth 42C 101 and Sa growth 42C second temp 88.
`O=C(OCC1COc2ccccc2O1)c1cc2ccccc2[nH]1` (stereo unspecified) gave HCMV NEC inh -13, Sa growth 42C 99 and Sa growth 42C second temp 89.
Screening CSc1nc2sc3c(c2c(=O)n1-c1ccc(F)c(Cl)c1)CCN(C(C)=O)C3 returned HCMV NEC inh -6, GIV Gai3 FP 101, Sa growth 42C 87 and Sa growth 42C second temp 86.
O=c1[nH]nc(-c2cccc(Br)c2)[nH]1 was read as HCMV NEC inh -3, Sa growth 42C 90 and Sa growth 42C second temp 94.
For CC1CCN(S(=O)(=O)c2ccc3nc(N4CCN(c5ccccc5)CC4)ccc3c2)CC1 the results were GIV Gai3 FP 99, Sa growth 42C 85 and Sa growth 42C second temp 90.
Cc1ccc(CNC(=O)c2cc(-c3ccc(Cl)cc3)on2)cc1 was read as HCMV NEC inh -21, GIV Gai3 FP 98, Sa growth 42C 114 and Sa growth 42C second temp 92.
`Cc1c(C(=O)O)sc2ncn(Cc3ccccc3F)c(=O)c12` gave GIV Gai3 FP 105, Sa growth 42C 86 and Sa growth 42C second temp 97.
For N#Cc1ccc(C(=O)OCC(=O)Nc2ccc(N3CCCCC3)cc2)cc1 the results were HCMV NEC inh -15, Sa growth 42C 83 and Sa growth 42C second temp 86.
`CSc1ncc(C(=O)N2CCN(c3ncccn3)CC2)n1-c1ccccc1` gave HCMV NEC inh -36, Sa growth 42C 109 and Sa growth 42C second temp 94.
Screening Cc1nc2c(c(C)nn2-c2ccccc2)c(C)c1CCC(=O)N1CCCC1 returned HCMV NEC inh -9, GIV Gai3 FP 103, Sa growth 42C 93 and Sa growth 42C second temp 86.
For Cc1ccc(C)c(NC(=O)c2cccs2)c1 the results were GIV Gai3 FP 104, Sa growth 42C 82 and Sa growth 42C second temp 80.
COCCNC(=O)c1ccc2c(=O)n(CC(C)C)c(SC(C)C(=O)c3ccc(C)c(C)c3)nc2c1 (stereo unspecified) was read as HCMV NEC inh 1 and GIV Gai3 FP 103.
Screening C=CCn1c(SCc2nc3ccccc3c(=O)[nH]2)nnc1-c1cccc(OC)c1 returned GIV Gai3 FP 101, Sa growth 42C 97 and Sa growth 42C second temp 85.
Screening CCOC(=O)c1c(CS(=O)(=O)c2cccc(C(F)(F)F)c2)oc2c(F)c(F)c(F)c(F)c12 returned HCMV NEC inh -19, GIV Gai3 FP 103, Sa growth 42C 99 and Sa growth 42C second temp 87.
Screening Clc1ccc(CCNc2ncnc3[nH]ncc23)cc1 returned HCMV NEC inh -10, Sa growth 42C 99 and Sa growth 42C second temp 77.
Screening CCN1C(=O)C(O)(CC(=O)C(C)(C)C)c2cc(Br)ccc21 (stereo unspecified) returned HCMV NEC inh -7, GIV Gai3 FP 107, Sa growth 42C 101 and Sa growth 42C second temp 106.
Screening CCN1C(=O)C2CSCN2C1=O (stereo unspecified) returned HCMV NEC inh -12, Sa growth 42C 93 and Sa growth 42C second temp 90.
CCCC(=O)N(c1ccc2oc(C)c(C(=O)OC)c2c1)S(=O)(=O)c1ccc(CC)cc1 was read as HCMV NEC inh 2 and GIV Gai3 FP 104.
CC(Oc1cccc2c1OC(C)(C)C2)C(=O)N1CCc2ccccc21 (stereo unspecified) was read as HCMV NEC inh -4, Sa growth 42C 105 and Sa growth 42C second temp 86.
CCN(CC)S(=O)(=O)c1ccc(N2CCN(c3ccc(C(F)(F)F)cn3)CC2)nc1 was read as HCMV NEC inh -13, Sa growth 42C 81 and Sa growth 42C second temp 91.
`NC(=O)Cn1c(CSc2nnnn2C2CCCC2)nc2ccccc2c1=O` gave HCMV NEC inh -8, Sa growth 42C 94 and Sa growth 42C second temp 91.
For CCCc1cc(=O)[nH]c(SCC(=O)c2cc(C)n(-c3ccc4c(c3)OCO4)c2C)n1 the results were HCMV NEC inh -6, Sa growth 42C 95 and Sa growth 42C second temp 101.
For O=C(c1nn2c(C(F)(F)F)c3c(nc2c1Cl)-c1ccccc1CC3)N1CCOCC1 the results were HCMV NEC inh -25 and GIV Gai3 FP 93.
`CCOCCCNC(=O)CN1C(=O)c2c(c3ccccc3n2C)C1c1ccc(OC)cc1` (stereo unspecified) gave HCMV NEC inh -6, GIV Gai3 FP 106&106, Sa growth 42C 112 and Sa growth 42C second temp 88.
`CCC(=O)Nc1ccc(-c2nc3c(C)cccc3c(=O)o2)cc1` gave HCMV NEC inh -2, GIV Gai3 FP 107, Sa growth 42C 101 and Sa growth 42C second temp 84.
